Bioassay records as filed in PubChem BioAssay.
Sa ugtP lethal = growth inhibition of ugtP-null S. aureus, primary screen, RN4220 ugtP deletion, OD600; 16 h; some inactives read as strong as hits; growth inhibition, % (test concentration not listed); 0.54% of 330,000 active;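 active = z-score under -3 and OD600 up to 0.15 on both plates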;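 also: plate controls were untreated wells for no effect and antibiotic for full effect; wells of about 80 µL received 100 nL stock; the first replicate is given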
Mtb hypoxia inh = PubChem AID 1159583; M. tuberculosis hypoxia-regulated fluorescent reporter, fluorescence; fluorescence inhibition, % (test concentration not listed); 0.1% of 300,000 active;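 active = 35 to 45% if threefold the growth effect, above 45% if 1.5-fold the growth effect; inactive = the rest, general growth blockers included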;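 also: wells of about 50 µL received 100 nL stock; 0% = vehicle wells and 100% = reference inhibitor wells; whole bacteria with a GFP reporter of the hypoxia response; strong numbers were not always called active; many hits fall short of the cut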
RN4220 kill = growth inhibition of S. aureus RN4220, primary screen, OD600. 16 h. AID 1259311, 2017. 0.33% of 330,000 active. inhibition, % (concentration not given with the values);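 active = z-score of -3 or lower and OD600 up to 0.18 on both plates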;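 also: plate controls were untreated cells for no effect and reference antibiotic for full effect; stock transfer was 100 nL into about 80 µL; one replicate is shown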
PrP 5UTR inh = inhibition of PrP 5' UTR reporter expression; AID 488862, 2010; 0.35% of 340,000 active; inhibition, % (concentration not given with the values); cell-based PrP 5' UTR mRNA reporter, plate reader;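 active = every replicate at 50% or more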;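 also: 0 = median of the neutral control wells; tested in H4 reporter cells; numbers are from one replicate; inactives centre near -14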
Autofluor counter = flagged as autofluorescent in microsphere protease counterscreen. compound autofluorescence counterscreen, microsphere flow cytometry; active compounds read high. fluorescence intensity (test concentration not listed). 3.1% of 360,000 active. AID 624483;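 active = at least 3 SD above the mean of all compounds, about 16000 in these data; inconclusive = too few beads counted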;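 also: 100 nL of 1 mM stock went into each well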
BJeLR viability = MLPCN primary cell-based screen for lethality selective to Ras in HRASV12 cells; BJeLR (HRASV12) viability, CellTiter-Glo ATP luminescence, 48 h; reference of the scale not given here; inhibition, % (no concentration beside the values); 0.17% of 300,000 active; AID 1554, 2009;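 active = replicate mean above 50%; inconclusive = above 50% but judged a plate artefact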;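 also: 50 nL library stock added to about 25 µL; numbers are from one replicate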
Mtb hypoxia inh growth = second read-out of Mtb hypoxia inh, no call of its own (marks repeat the call); growth inhibition, %; measured here: M. tuberculosis growth (absorbance);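 0% = vehicle and 100% = reference antibiotic; read after six days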
Starred values were filed as active, the others as inactive; ? = inconclusive; nt = no result given.

SMILES	Sa ugtP lethal	Mtb hypoxia inh	Mtb hypoxia inh growth	RN4220 kill	PrP 5UTR inh	Autofluor counter	BJeLR viability
CC(=O)Nc1ccc(NC(=O)C(C)OC(=O)/C=C/c2cn(-c3ccccc3)nc2-c2cccnc2)cc1 (stereo not given)	1.3	8.0	7.9	2.7	-22.6	2308	6.7
O=C(NC1CCS(=O)(=O)C1)c1ccc(S(=O)(=O)NCC2CCCO2)cc1 (stereo not given)	-4.8	nt	nt	-0.1	-20.2	4631	-9.7
CC1CC1C(=O)Nc1nc(-c2cccs2)c(-c2cccs2)s1 (stereo not given)	nt	nt	nt	nt	-14.6	2180	-4.7
Cc1ccc2c(CN3CCN(S(=O)(=O)/C=C/c4ccccc4)CC3)cc(=O)oc2c1	nt	nt	nt	nt	-27.2	2482	4.4
CS(=O)(=O)Nc1cccc(C2=NN(C(=O)c3ccccc3Cl)C(c3ccccc3O)C2)c1 (stereo not given)	0.2	14.0	5.3	3.7	-7.2	2095	-3.3
COc1ccc(Cc2n[nH]c(=S)n2NC(=O)Nc2ccc(Cl)c(Cl)c2)cc1	99.8*	1.6	-4.5	100.4*	-28.6	4259	8.4
CC(C)CC1(C)N=C(c2ccccc2)C(=S)N1 (stereo not given)	0.7	4.3	0.7	4.6	-29.0	3414	-6.7
COc1ccc(CNC(=S)Nc2ccc(F)c(Cl)c2)cc1OC	-0.7	13.2	7.2	-1.5	-16.7	3335	-5.1
Cc1nn(-c2ccccc2)c(C)c1CNC(=O)c1ccc(S(=O)(=O)NCc2ccco2)cc1	1.4	-0.2	16.7	1.0	4.3	3841	nt
Cc1c(Cl)cnn1CC(=O)NC1C(=O)N2C(C(=O)O)=C(CSc3nnnn3C)CSC12 (stereo not given)	100.5*	nt	nt	100.2*	-21.6	4154	-0.8
O=C(COC(=O)c1cc([N+](=O)[O-])ccc1N1CCOCC1)NC1CCCCC1	-0.9	7.2	2.9	2.1	-17.9	6098	-11.2
CC1CN(C(=O)CCC(=O)N2CCC3(CC2)OCCO3)c2cc(Cl)ccc2O1 (stereo not given)	2.3	6.1	0.1	4.1	-13.4	5564	-0.2
CCOC(=O)c1c(C)[nH]c(C)c1C(=O)COC(=O)c1ccc(O)cc1	2.7	-21.0	0.2	-7.7	-14.6	3919	-1.8
O=C(NCC1CCCO1)c1ccccc1NS(=O)(=O)c1cccc([N+](=O)[O-])c1 (stereo not given)	11.2	5.2	-0.7	8.2	-10.9	2930	nt
COc1cccc(C2=NOC(C(=O)NC(C)(C)C)C2)c1 (stereo not given)	8.8	9.6	7.8	3.2	-33.1	9406	-0.4
COc1ccc(C(=O)C(C)OC(=O)COc2ccccc2)cc1 (stereo not given)	3.4	4.3	6.2	4.3	-12.4	nt	nt
CNc1cnn(-c2ccccc2)c(=O)c1Cl	-1.0	nt	nt	-0.1	-26.0	3269	-5.2
Cc1cccc(C(=O)OC(C)CN2CCCC2)c1 (stereo not given)	2.2	-1.1	-3.0	2.6	-3.7	3979	12.5
N#Cc1ccccc1CCN1C(=O)c2ccccc2C1=O	0.1	0.7	8.5	5.9	-21.3	4067	-0.3
Cc1nc(Nc2ccccc2)[nH]c(=O)c1CCC(C)C	0.4	-8.0	13.4	1.7	-15.0	9772	3.8
CCOC(=O)N1CCN(C(=O)C2CC(c3cc(OC)ccc3OC)=NO2)CC1 (stereo not given)	2.4	12.2	2.4	5.8	-83.8	23965*	nt
O=C(Cn1cnc([N+](=O)[O-])c1)Nc1ccccc1C(F)(F)F	nt	nt	nt	nt	-12.5	3953	-0.7
CCOc1ccc(N(CC)C(=O)COc2cc(=O)n(C)c3ccccc23)cc1	16.2	nt	nt	5.5	-37.3	5604	9.7
O=S(=O)(c1ccccc1)N1CCN(Cc2ccc(Cl)cc2)CC1	13.9	-1.0	-3.0	1.0	-30.8	3432	5.0
CCOC(=O)C/C(N)=N/N(C)c1ncc(C(F)(F)F)cc1Cl	7.6	15.0	5.4	3.0	-16.2	4509	2.9

Whole records as entered above. Order of values: Sa ugtP lethal, Mtb hypoxia inh, Mtb hypoxia inh growth, RN4220 kill, PrP 5UTR inh, Autofluor counter, BJeLR viability
Record of `COc1ccc(C(=O)C(C)OC(=O)COc2ccccc2)cc1` (stereo not given) → 3.4, 4.3, 6.2, 4.3, -12.4, nt, nt
Record of `O=S(=O)(c1ccccc1)N1CCN(Cc2ccc(Cl)cc2)CC1` → 13.9, -1.0, -3.0, 1.0, -30.8, 3432, 5.0
Record of `O=C(NCC1CCCO1)c1ccccc1NS(=O)(=O)c1cccc([N+](=O)[O-])c1` (stereo not given) → 11.2, 5.2, -0.7, 8.2, -10.9, 2930, nt

Next structures follow.
SMILES	Sa ugtP lethal	Mtb hypoxia inh	Mtb hypoxia inh growth	RN4220 kill	PrP 5UTR inh	Autofluor counter	BJeLR viability
Cc1ccc(NC(=O)CSc2nc3c(c(=O)[nH]2)CN(Cc2ccc(F)cc2)CC3)cc1C	8.6	2.0	14.7	6.7	-7.0	2435	-1.2
CCCN1CNC(=S)N(c2ccc(C(=O)OCC)cc2)C1	1.0	nt	nt	0.9	-22.3	6396	-3.6
CC(Oc1ccccc1)c1nnc(SCC(=O)NC2CC2)n1C (stereo not given)	nt	nt	nt	nt	-4.1	4604	-2.4
CC(=O)Nc1ccc(OC(=O)Oc2ccc(NC(C)=O)cc2)cc1	nt	nt	nt	nt	3.6	3805	0.2
CC(C)OC(=O)c1c(NS(=O)(=O)c2ccccc2)sc2c1CCCC2	9.9	-0.8	0.4	17.6	-13.2	3440	2.3
C[C@]12CCC3C(CC[C@H]4C[C@@H](O)CC[C@]34C)C1C[C@@H](O)[C@H]2O (stereo not given in full)	1.9	8.5	4.3	5.5	-19.9	3967	nt
Cc1ccc(S(=O)(=O)N/N=C(\c2ccccc2)C2CC2)cc1	nt	nt	nt	nt	0.5	6009	-1.8
O=C(O)C[C@H]1c2cc(F)ccc2S(=O)(=O)N1C1CCN(Cc2ccccc2)CC1	nt	nt	nt	nt	-3.6	4026	13.9
CC(C)(C)c1ccc(S(=O)(=O)NCC(=O)Nc2ccc(-c3nc4ccccc4s3)cc2)cc1	-5.5	nt	nt	-1.3	-8.2	2832	8.7
COc1ccc(-c2nn(-c3ccccc3)cc2C(=O)Nc2nccs2)cc1	-12.9	nt	nt	-5.6	5.7	2622	3.1
CCn1cc(C(=O)Nc2ccc(OC)c(S(=O)(=O)N3CCCCC3)c2)c(=O)c2ccc(C)nc21	13.8	3.0	-2.0	3.3	-12.7	2095	-4.1
COc1cccc(C(=O)N/N=C(/c2ccccc2)c2ccccn2)c1	nt	nt	nt	nt	12.8	3193	87.8*
O=C(COc1ccc(S(=O)(=O)NC2CCCCC2)cc1)NC1CCCCC1	3.8	nt	nt	3.5	8.4	3819	-7.3
CCOC(=O)c1cnc2ccc(OCC)cc2c1NCc1ccccc1	-25.8	5.9	9.3	4.0	1.8	9387	4.4
CCCOc1ccc2c3c(c(=O)oc2c1OCCC)CCCC3	-15.5	nt	nt	13.0	-31.3	2548	-1.2
CC(Nc1ccc(Br)cn1)c1cc(Cl)ccc1O (stereo not given)	nt	nt	nt	nt	-2.4	4352	0.1
Cc1ccc2c(c1)N(CC(=O)Nc1ccccc1F)C(=O)CO2	-1.6	10.7	5.0	-1.7	-13.1	3545	-1.9
Cc1ccc(C)c(NC(=O)COC(=O)c2c(C)nn(-c3ccccc3)c2C)c1	1.0	21.6	41.0	-4.4	-9.1	4062	nt
Nc1c(C(=O)NN=Cc2cccnc2)oc2nc(-c3ccco3)cc(-c3ccco3)c12	-8.4	12.1	11.6	3.5	nt	nt	nt
O=C(CNC(=O)c1cccc(F)c1)NC1CC1	-5.2	1.2	-0.8	-2.9	6.6	2997	nt
OCc1cccc[n+]1Cc1ccccc1	2.0	-0.1	6.4	3.4	-13.5	4917	12.1
Oc1ccc(N=Nc2ccc3c(c2)OCCO3)c(O)c1	6.1	3.2	-14.7	-5.2	20.4	4815	9.1
CC(C)c1ccc(NC(=O)C2C3C=CC4(O3)C2C(=O)N(CCCN2CCOCC2)C4C(=O)NC2CCCCC2)cc1 (stereo not given)	14.2	13.0	1.0	1.4	-21.5	3855	2.4
CCCNC(=O)N1C2CCC1C(C(=O)OC)=C(c1cc3ccccc3o1)C2 (stereo not given)	-5.7	8.9	10.3	3.3	nt	nt	nt
CCCN(c1nc(C)cc(OC)n1)S(=O)(=O)c1ccccc1	13.9	25.7	-1.1	6.5	-20.1	9882	8.7
Next part
SMILES	Sa ugtP lethal	Mtb hypoxia inh	Mtb hypoxia inh growth	RN4220 kill	PrP 5UTR inh	Autofluor counter	BJeLR viability
CC(C)NC(=O)Cn1nc(C(F)(F)F)c2c1CCC2	-1.2	-0.4	0.4	3.9	1.4	?	-9.4
NNc1nc(Nc2ccc([N+](=O)[O-])cc2)nc(N2CCCCCC2)n1	-11.0	-2.5	8.0	8.3	-26.8	3667	-24.1
CCN1CCN(c2ncc3c(n2)CC(c2ccc(OC)c(OC)c2)CC3=O)CC1 (stereo not given)	-5.4	5.4	1.5	3.8	-28.2	10978	2.5
Cc1ccccc1NC(=O)Cc1nc(COC(=O)c2cccnc2Cl)cs1	5.9	-5.3	2.5	5.0	-23.6	3822	nt
O=C(COc1ccc(Cl)cc1Cl)N1CCNC1=O	9.0	-6.4	0.2	7.0	-17.9	2707	nt
Cc1ccc(NC(=O)C(C)Sc2nc(-c3ccccc3)cc(=O)[nH]2)cc1 (stereo not given)	0.9	4.7	9.4	5.9	-6.5	3432	-4.5
COc1ccc(-c2cc(=O)c3ccccc3s2)cc1	-4.7	1.1	5.5	18.1	-116.8	6464	1.1
CC(=NNC(=O)CN1CCN(c2ccc(F)cc2)CC1)c1ccco1	5.4	-7.3	-7.4	1.5	nt	nt	nt
Cn1c(NC(=O)c2ccc(Cl)cc2)cc(=O)n(C)c1=O	-1.3	-4.5	11.0	1.1	-16.8	2055	6.6
COc1ccccc1N(CC(=O)Nc1ccc2c(c1)OCO2)S(=O)(=O)c1ccccc1	-3.3	0.1	-1.1	1.5	-10.1	8812	-11.1
CCc1ccc(-n2nnnc2SCC(=O)NNC(=O)c2ccco2)cc1	3.5	-3.5	6.7	6.4	-27.1	6797	-12.8
CCOc1ccc(N2C(=O)CSC2=S)cc1	2.4	8.1	12.9	6.8	-12.0	3920	3.7
COc1ccc(NC(=O)CSCc2ccc(C)cc2)cc1	4.7	-5.2	-3.1	-0.3	-20.1	2057	-0.1
CCC(=NNC(=S)Nc1ccc(OC)cc1)c1ccc(OC(F)F)cc1	39.9	2.1	6.8	2.8	nt	nt	nt
CCOc1cc(N2CCOCC2)c(OCC)cc1NC(=O)CN1CCC(Cc2ccccc2)CC1	-2.1	-3.7	-6.4	1.1	6.8	1999	-9.3
Cc1ccc(-n2c(=O)c3sccc3n(CC(=O)NC3CCCC3)c2=O)cc1	0.0	-8.6	-1.8	0.8	-19.8	3761	-5.8
CCOc1cc(C(=O)Nc2cc(C)ccc2C)ccc1OCC(=O)N1CCCCC1	6.8	1.7	10.2	2.8	-16.1	2114	0.1
CCOC(=O)c1ccc(S(=O)(=O)N2CCN(C)CC2)cc1	5.9	-9.8	-6.7	3.9	-24.5	6977	10.5
O=C(CCCCCCCC(=O)N1CCCC1)N1CCCC1	-0.3	10.0	3.8	1.2	-22.2	4564	nt
Cc1c(NC(=O)COC(=O)CCc2c[nH]c3ccccc23)c(=O)n(-c2ccccc2)n1C	5.4	12.0	-25.3	1.5	-17.9	5817	-11.0
CCCCNCC1CCCO1 (stereo not given)	0.5	9.2	-2.3	-0.9	-34.5	4208	-4.0
CS(=O)(=O)N1CCc2cc(C(=O)N3CCOCC3)ccc21	0.2	nt	nt	-1.7	-13.5	5174	0.1
CCOC(=O)c1nn(-c2ccc3c(c2)OCO3)cc1O	-0.5	1.6	8.9	-2.7	-54.5	3217	-1.2
Cc1cc(NC(=O)CN2CCN(C/C=C/c3ccccc3)CC2)c([N+](=O)[O-])cc1C	0.0	2.2	5.8	0.8	-13.5	2126	-8.9
Cc1noc(C)c1C(=O)OCC(=O)NC(=O)NC12CC3CC(CC(C3)C1)C2	-10.6	-1.9	0.2	-2.9	-1.0	10364	-6.2
O=[N+]([O-])c1ccccc1NC1CCN(Cc2ccccc2)CC1	7.5	5.4	9.0	-0.4	-19.5	4712	-10.7
COc1ccc(OC(=O)/C=C/c2ccc([N+](=O)[O-])cc2)cc1	9.3	6.2	5.6	3.5	-20.0	3565	-7.5
CCN(CC)c1ccc(CNC23CN4CN(CN(C4)C2)C3)cc1	5.5	7.0	6.0	5.9	-18.7	7917	2.7
